HNF4A DNA FP: change in binding of human HNF4 alpha to DNA. P41235. HNF4a-FITC DNA binding, fluorescence polarization, 1 h. activity change, % at 10 µM. actives 0.3% (n = 360,000); in the data active = activity change above about 30%, passing the limit was not always enough;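 also: controls were the assay level and a saturating level of protein; the project sought stronger binding though the title names inhibitors; some compounds called inactive have numbers as strong as hits; positive values seem to mean higher polarization but the record does not say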
Target sequence (P41235 whole entry, looked up): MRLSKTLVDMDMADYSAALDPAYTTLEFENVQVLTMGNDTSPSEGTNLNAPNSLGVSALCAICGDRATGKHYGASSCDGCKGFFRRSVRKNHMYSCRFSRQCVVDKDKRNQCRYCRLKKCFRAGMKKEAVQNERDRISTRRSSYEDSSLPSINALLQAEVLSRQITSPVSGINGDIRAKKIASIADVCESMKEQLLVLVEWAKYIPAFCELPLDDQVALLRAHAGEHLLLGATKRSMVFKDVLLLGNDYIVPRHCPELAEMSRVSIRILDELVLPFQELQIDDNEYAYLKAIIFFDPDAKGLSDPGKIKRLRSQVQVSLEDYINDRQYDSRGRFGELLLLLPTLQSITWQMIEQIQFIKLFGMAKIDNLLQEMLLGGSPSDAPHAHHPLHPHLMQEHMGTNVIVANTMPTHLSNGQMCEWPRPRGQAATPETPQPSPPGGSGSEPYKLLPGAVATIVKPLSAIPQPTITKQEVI
Ecoli growth: blocks Escherichia coli growth. OD600, 23 h; active compounds read low. OD600 absorbance (test concentration not listed). actives 0.21% (n = 330,000);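 active = OD600 absorbance below the run mean of sample wells minus 3.6 SD, in any replicate, cut at about 0.56 in these data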;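 also: stock transfer was 300 nL into about 60 µL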
UCH37 inh: inhibitors of human deubiquitinating enzyme UCH37; Q9Y5K5; purified proteasome/UCH37, Ub-AMC cleavage fluorescence; inhibition, % (concentration not given with the values); actives 0.33% (n = 330,000); AID 588478;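 active = mean of two replicates above 20%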;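 also: 0% = compound-free wells with enzyme and 100% = wells lacking proteasome; stock transfer was 100 nL into about 20 µL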
Target sequence (Q9Y5K5 whole entry, looked up): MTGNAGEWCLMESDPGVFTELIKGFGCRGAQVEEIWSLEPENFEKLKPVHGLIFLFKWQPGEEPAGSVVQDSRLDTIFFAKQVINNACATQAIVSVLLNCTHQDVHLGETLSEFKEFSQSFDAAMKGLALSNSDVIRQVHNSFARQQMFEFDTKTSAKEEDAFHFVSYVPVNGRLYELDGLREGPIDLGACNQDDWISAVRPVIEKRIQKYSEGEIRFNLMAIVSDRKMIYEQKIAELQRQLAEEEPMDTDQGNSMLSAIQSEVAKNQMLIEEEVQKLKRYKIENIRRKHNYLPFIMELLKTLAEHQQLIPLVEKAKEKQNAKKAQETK
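Material: human UCH37 enzyme supplied as purified proteasome complex. Measure: % inhibition of Ub-AMC cleavage fluorescence. Medium: pH 7.4 Tris-HCl (50 mM) with ovalbumin, ATP-MgCl2, DTT. Times: 30 min preincubation with enzyme, 25 min cleavage at room temperature. Detection: AMC fluorescence intensity at 355/460 nm.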
Vif A3G: HIV-1 Vif–A3G interaction blockers – biochemical, TR-FRET, GST-Vif 1-94, biotin-A3G peptide, dose response retest, primary screen (AID 1117319) | TR-FRET GST-Vif / biotin-A3G peptide binding; higher % means a stronger effect; test concentration not given here; strong numbers were not always called active | inhibition, %; hits with a dose series show IC50 in µM | actives 0.57% (n = 260,000);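 active = above the screen mean plus three standard deviations and confirmed in dose response; inconclusive = results disagree or hit not tested in dose response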;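 also: Vif residues 1-94 fused to GST binding biotinylated APOBEC3G peptide 110-148; 0% = full assay without inhibitor and 100% = GST in place of GST-Vif; retest series ran down from 100 µM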
Numbers without * were called inactive; ? = inconclusive; · = no result given.

SMILES	HNF4A DNA FP	Ecoli growth	UCH37 inh	Vif A3G
Cc1ccccc1C=NNC(=O)Cc1ccc(Cl)cc1	·	0.67	-0.4	·
Cc1cc(C)nc(SCc2ccc(C(=O)NN=CC3CCCCC3)cc2)n1	·	0.69	1.2	·
O=C(ON=C1CCCc2ccccc21)c1ccc(F)cc1	·	0.69	0.6	·
CCN(CC)c1ccc(C=NN2CCOCC2)cc1	·	0.69	11	·
COc1cc(C=NN(c2ccccc2)c2ccccc2)ccc1O	·	0.62	1.9	·
Cc1cc(=O)oc2c1ccc1oc(C(=NO)c3ccccc3)c(C)c12	·	0.76	-2.8	·
CCOc1cc(C=NNC(=O)Cn2nnc3ccccc32)ccc1O	·	0.72	1.5	·
CC(=NNC(=O)c1cc(C)nc2ccccc12)c1ccc([N+](=O)[O-])cc1	·	0.68	4.9	·
Cc1cccc(C=Nn2c(C)nc3ccccc3c2=O)c1	·	0.65	6.2	·
CN(C)c1cc(NN=Cc2ccc(Cl)cc2)nc(N(C)C)n1	·	0.68	1.0	·
N#Cc1cc([N+](=O)[O-])ccc1Oc1cccc(C=NNC(=O)c2cccc(Cl)c2)c1	·	0.71	3.1	·
O=C(NN=Cc1ccc2c(c1)OCO2)C(=O)Nc1cccc(Cl)c1	·	0.72	-8.8	·
NC(=NOC(=O)c1ccc(Cl)c([N+](=O)[O-])c1)c1ccccc1	·	0.71	3.3	·
Cc1cc(-c2ccccc2)nc(NN=Cc2ccc(N(C)C)cc2)n1	·	0.68	6.3	·
O=C(CON=Cc1ccccc1Cl)N1CCCc2ccccc21	·	0.7	4.0	·
CCCOc1ccc(C=c2sc3ncnn3c2=O)cc1	·	0.71	-1.1	·
Cc1cccc(NC(=S)NN=Cc2cccn2Cc2ccc(F)cc2)c1	·	0.73	2.8	·
O=c1nc2sc(=Cc3ccco3)c(=O)n2nc1Cc1ccc(F)cc1	·	0.65	0.2	·
O=C(CSc1nnc(-c2ccc(Cl)cc2)n1-c1ccc(Cl)cc1)NN=Cc1ccccc1C(=O)O	·	0.71	-1.0	·
CCOC(=O)c1sc(N=Cc2ccc(O)cc2O)cc1C	·	0.7	5.1	·
O=C(CON=Cc1c(Cl)cccc1Cl)NNC(=O)c1ccc(Cl)cc1	·	0.68	3.4	·
COc1ccc(OCC(=O)NN=C(C)CC(=O)Nc2ccc(OC)cc2[N+](=O)[O-])cc1	·	0.69	5.6	·
COc1ccc(NC(=O)CON=CC(=O)Nc2ccccc2C)c([N+](=O)[O-])c1	·	0.68	1.1	·
Cc1ccccc1OCc1nc2ccccc2c(=O)n1N=Cc1cn[nH]c1-c1ccc(Br)cc1	·	0.7	0.6	·
Cc1cc(C(=O)NN=Cc2ccc3c(c2)OCO3)c(C)n1-c1ccc(F)cc1	·	0.64	-3.4	·
O=C(CN(c1ccccc1)S(=O)(=O)c1ccccc1)NN=Cc1ccco1	·	0.64	3.6	·
CC(=NNc1ccccn1)c1ccc(N2CCOCC2)cc1	·	0.73	6.6	·
COc1cc(C=NN2CCN(c3ccc(Cl)cc3)CC2)cc(OC)c1OC(C)=O	·	0.7	1.7	·
COc1ccc(C=NNC(=O)c2snnc2C)c(OC)c1OC	·	0.68	-23	·
CNC(=S)NN=Cc1c(C)nn(-c2ccccc2)c1Cl	·	0.75	1.8	·
O=C(NN=Cc1ccc(Br)s1)c1ccco1	·	0.61	12	·
CC1=NN(/C(=N/c2nnc(C)s2)Nc2ccc(C(C)(C)C)cc2)[C@H](c2ccc(C)cc2)S1	·	0.73	6.0	·
CC(CCc1oc2ccc(Cl)cc2c1-c1ccc(C)o1)=NO	·	0.7	0.7	·
CCOC(=O)NN=Cc1cc(C)n(-c2cccc3ccccc23)c1C	·	0.7	1.4	·
Cc1cc(C(=O)NN=C(CCC(=O)O)c2cccs2)c2ccccc2n1	·	0.7	4.9	·
CC(=NNC(=S)Nc1ccc(F)cc1)C1CC1	·	0.69	4.1	·
Cc1ccc(C=NNC(=O)C[n+]2ccccc2)o1	·	0.68	5.5	·
N#Cc1ccc(OCC(=O)NN=C(CCC(=O)O)c2cccs2)cc1	·	0.74	5.0	·
CCC(=NNC(=O)c1ccc(Br)cc1)c1ccccc1	·	0.69	4.6	·
CC(=NNC(=O)c1ccccc1Cl)c1ccccn1	·	0.63	0.4	·
O=S(=O)(c1ccc(NC(=S)NN=Cc2ccc(N3CCOCC3)cc2)cc1)N1CCOCC1	·	0.68	-31	·
COc1ccc(CC(=O)NN=C(C)CC(=O)N(C)c2ccccc2)cc1	·	0.68	8.2	·
O=C(NN=Cc1ccccc1O)C1CCCC1	·	0.68	-40	·
COc1ccc(C(C)=NNC(=O)CNC(=O)C(c2ccccc2)c2ccccc2)cc1OC	·	0.65	0.9	·
COc1cccc(C=NNC(=O)CCn2nnc3ccccc32)c1	·	0.71	3.6	·
O=C(NN=Cc1ccc2c(c1)OCO2)C(O)c1ccccc1 (stereo not given)	·	0.68	3.5	·
Nc1nonc1-n1nnc(C(=O)NN=Cc2cccc(Cl)c2)c1-c1cccs1	·	0.62	-0.2	·
O=C(Cn1nc(C(F)F)cc1C(F)F)NN=Cc1ccc2c(c1)OCO2	·	0.75	-1.1	·
COc1ccccc1NCC(=O)NN=Cc1c(O)ccc2ccccc12	·	0.66	-29	·
CCCCCCCCC(=O)NN=C(C)c1ccco1	·	0.64	2.3	·
CSc1nncc(C(C)=NNc2ccccc2)n1	·	0.76	-1.4	·
Cc1nn(Cc2ccc(C(=O)NN=Cc3ccncc3)o2)c(C)c1Cl	·	0.68	2.5	·
C=CCn1c(-c2ccc(OC)c(OC)c2)csc1=Nc1ccccn1	·	0.78	2.9	·
CC(C)N=C1CC(C)(C)CC(=O)/C1=C(\O)CCCN1C(=O)c2ccccc2C1=O	·	0.73	4.2	·
CC(=O)Nc1ccc(S(=O)(=O)NN=Cc2ccc(C)o2)cc1	·	0.69	4.1	·
Cc1ccc2cc(C=NNC(=O)CN3CCOCC3)c(Cl)nc2c1	·	0.7	7.1	·
CC(C)(CSc1nncn1N=Cc1ccco1)NS(=O)(=O)c1ccc(Cl)cc1	·	0.7	6.3	·
O=C(C[n+]1ccc(C(=O)NN=Cc2ccc(OCc3ccccc3)cc2)cc1)c1ccccc1	·	0.69	14	·
COc1ccc(C=NNC(=O)c2cc(OC)c(OC)c(OC)c2)cc1CN1CCc2cc(OC)c(OC)cc2C1C (stereo not given)	·	0.67	4.8	·
CCOc1ccc(C=Nn2cc(-c3ccccc3)[nH]c2=S)cc1	·	0.72	1.4	·

(next part)
SMILES	HNF4A DNA FP	Ecoli growth	UCH37 inh	Vif A3G
O=C(NN=Cc1c[nH]c2c1ccc1ccccc12)c1ccc([N+](=O)[O-])cc1	·	0.7	2.7	·
CC(=NN=C(N)SC1CC(=O)N(c2ccccc2)C1=O)c1cccs1 (stereo not given)	·	0.67	8.0	·
O=[N+]([O-])c1ccccc1C=NN1CCN(c2ccccn2)CC1	·	0.69	0.9	·
O=C1C(Nc2ccccc2)=CC(=NS(=O)(=O)c2cccs2)c2ccccc21	·	0.69	78*	·
O=C(Cc1ccc(O)cc1)NN=Cc1cccnc1	·	0.71	1.6	·
CC1(C)C2CC=C(C=NNC(=O)c3ccccc3Br)C1C2 (stereo not given)	·	0.7	2.6	·
Cc1ccc(NC(C)C(=O)NN=Cc2ccc([N+](=O)[O-])s2)cc1 (stereo not given)	·	0.7	8.7	·
Cc1ccccc1OCC(=O)NN=Cc1ccc(N2CCOCC2)o1	·	0.68	-3.4	·
CCN(CC)S(=O)(=O)c1cccc(C(=O)NN=Cc2ccc(N3CCOCC3)cc2)c1	·	0.67	-35	·
O=C(CNc1ccccc1)NN=Cc1cn(-c2ccccc2)nc1-c1ccccc1	·	0.63	0.4	·
COc1cccc2sc(N=CN(C)C)nc12	·	0.64	8.2	·
C=CCN1C(=O)C(CC(=O)Nc2ccccc2)SC1=Nc1nccs1 (stereo not given)	·	0.69	0.3	·
O=[N+]([O-])c1ccc(NN=Cc2sc(N3CCOCC3)nc2-c2ccccc2)c(S(=O)(=O)Nc2ccccc2Cl)c1	·	0.73	13	·
O=C(CCCCCNC(=O)c1ccccc1)NN=Cc1ccc(O)cc1O	·	0.69	-4.7	·
S=c1[nH]nc(-c2cccs2)n1N=Cc1c(Cl)cccc1Cl	·	0.69	5.8	·
Cc1cc[n+](-c2nc([O-])sc2C=NNc2ccc([N+](=O)[O-])cc2)cc1	·	0.7	8.0	·
CCOc1ccc(C(=O)NN=C(C)C2C(=O)c3ccccc3C2=O)cc1	·	0.68	6.6	·
COc1ccc(C=NNC(=O)c2cc(C34CC5CC(CC(C5)C3)C4)[nH]n2)cc1O	·	0.67	5.1	·
CC(=NNC(=O)c1ccc(C)cc1C)c1ccc2c(c1)OCO2	·	0.68	1.8	·
CC(=NNC(=O)c1ccc(CSc2nncn2C)cc1)c1ccc(Cl)cc1	·	0.7	2.1	·
Cc1cccc(-c2n[nH]c(=S)n2N=Cc2ccc(C)o2)c1	·	0.7	5.8	·
CCCN1C(=O)C(=NOCC(=O)Nc2ccc(C(C)C)cc2)c2ccccc21	·	0.7	7.0	·
O=C(CON=Cc1ccc(OC(F)F)cc1)NC1CCCCCC1	·	0.65	2.8	·
COc1ccccc1C=NOCc1ccc(C#N)cc1	·	0.63	2.1	·
O=C(NN=Cc1cccnc1)/C(=C\c1cccs1)NC(=O)c1ccccc1	·	0.63	15	·
NC(=O)C(CC(=O)O)NC(=O)[C@@H]1CCOc2c(I)cc([N+](=O)[O-])cc2C(=O)N[C@@H](CCC(=O)O)C(=O)N[C@@H](CO)C(=O)N1 (stereo not given in full)	·	·	2.0	-2%
COc1cccc([C@@H]2Oc3ccc(OC)cc3C(=O)[C@H]2OC(=O)Nc2cc(OC)c(OC)c(OC)c2)c1	·	·	1.5	?
C[C@@H]1NC(=O)c2cc([N+](=O)[O-])cc(I)c2NCCCC[C@@H](C(N)=O)NC(=O)[C@H](CC(N)=O)NC1=O	·	·	2.4	31%
NC(=O)[C@@H]1CCCNc2c(I)cc([N+](=O)[O-])cc2C(=O)N[C@@H](CCCN=C(N)N)C(=O)N[C@@H](CCCN=C(N)N)C(=O)N1	·	·	2.6	9%
C[C@@H]1NC(=O)c2cc([N+](=O)[O-])cc(I)c2OCC[C@@H](C(=O)NC(CC(=O)O)C(N)=O)NC(=O)[C@H](CC(N)=O)NC1=O (stereo not given in full)	·	·	1.5	7%
C=C(C)C(=O)Nc1cccc(C2=NOC3(C2)C[C@@H](C(N)=O)N(C(=O)c2ccc(Cl)cc2)C3)c1 (stereo not given in full)	·	·	3.1	?
COc1cccc([C@@H]2Oc3ccc(Br)cc3C(=O)[C@H]2OC(=O)NC2CCCC2)c1	·	·	4.5	9%
C[C@H]1CC[C@H]2C(=O)N[C@H](Cc3ccccc3)C(=O)N2[C@@H]1c1ccccc1	·	·	1.2	-3%
COc1ccc2c(c1)O[C@@H](c1cccc(C(F)(F)F)c1)[C@H](OC(=O)Nc1ccc(OC(F)F)cc1)C2=O	·	·	2.0	-4%
C=CC[C@H](CC(=O)NCCO)C(=O)NCCOC(=O)[C@@H](CC=C)CC(=O)OC(C)(C)C	2.5	·	0.1	·
CC[C@@H](C)[C@@H]1CN([C@@H](C)CN2CCC[C@H]2CN2C(N)=NC[C@@H]2Cc2ccccc2)C(=N)N1CCc1ccc(Cl)c(Cl)c1	4.3	·	1.2	·
C[C@H](CO)N1C[C@H](C)[C@H](CN(C)Cc2ccc(-c3ccccc3)cc2)Oc2ccc(NS(=O)(=O)c3ccccc3)cc2CC1=O	-1.5	·	2.6	·
CCC[C@H]1CCCC/C=C\CCCC(=O)OCCN1C(=O)OC(C)(C)C	-9.4	·	0.5	·
CCCSc1ccc([C@@H]2[C@@H]3C(=O)N(C)C(=O)[C@@H]3[C@]3(C(=O)OC)CCCN23)cc1OC	-1.4	·	-1.3	·
CCN1C(=O)CC(c2ccccc2)N(C2CCCC2)c2nc(Nc3ccc(C(=O)NC4CCN(C)CC4)cc3OC)ncc21 (stereo not given)	4.5	·	-7.5	·
c1ccc(-c2sc3ccccc3c2-c2ccc(OCCN3CCOCC3)cc2)cc1	-3.3	·	-1.2	·
C=C[C@]1(C)C=C2CC[C@H]3[C@@](C)(CCC[C@@]3(C)C(=O)O)[C@@H]2CC1	-2.5	·	1.0	·

These rows are one share of the data; rates above refer to the full screens.
